gsp ag: qHTS for Agonist of gsp, the Etiologic Mutation Responsible for Fibrous Dysplasia/McCune-Albright Syndrome: qHTS; gsp mutant cells, cAMP HTRF, 30 min; control for the full effect not named in the record; Potency, µM (doses to about 76.9 µM), without a hit: top-dose activation (cAMP increase), actives largely listed as activators; hit rate 0.13% among 340,000; AID 624287, 2012; active = well fitted activation curve with a large enough effect; inconclusive = small, poorly fitted or top-dose-only effect, or another doubt; inactive = no such curve, though single readings can be large or run the other way; cell line not stated here;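 note: phosphodiesterase inhibitor Ro 20-1724 added with compounds to block cAMP breakdown; potency is the fitted concentration of half-maximal effect; nearly all actives have a fitted effect of over 60% in size; about a fifth of the inactives were tested at one dose only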
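Cells stably selected in G418 were plated at 2000/well, grown 16-24 hr, then given compounds in DMSO with the PDE inhibitor […] (300 uM solution added) for 30 min at 37C; cAMP was read by HTRF.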
Six1-Eya2 inh: qHTS Assay for Inhibitors of the Six1/Eya2 Interaction; Homeobox protein SIX1 (Homo sapiens) + Protein phosphatase EYA2 (Homo sapiens), …; AlphaScreen GST-Six1/His-Eya2 binding, biochemical; stronger effect = lower value; control for the full effect not named in the record; activity change, % (concentration not given with the values); hit rate 0.56% among 360,000; AID 651725, 2012; in the data active = activity change below about -65%; inconclusive = about -30% to -65%; inactive = above about -30%; note: % is set by controls: 0 for no effect and ±100 for the full control effect
Target sequence (O00167 whole entry, looked up): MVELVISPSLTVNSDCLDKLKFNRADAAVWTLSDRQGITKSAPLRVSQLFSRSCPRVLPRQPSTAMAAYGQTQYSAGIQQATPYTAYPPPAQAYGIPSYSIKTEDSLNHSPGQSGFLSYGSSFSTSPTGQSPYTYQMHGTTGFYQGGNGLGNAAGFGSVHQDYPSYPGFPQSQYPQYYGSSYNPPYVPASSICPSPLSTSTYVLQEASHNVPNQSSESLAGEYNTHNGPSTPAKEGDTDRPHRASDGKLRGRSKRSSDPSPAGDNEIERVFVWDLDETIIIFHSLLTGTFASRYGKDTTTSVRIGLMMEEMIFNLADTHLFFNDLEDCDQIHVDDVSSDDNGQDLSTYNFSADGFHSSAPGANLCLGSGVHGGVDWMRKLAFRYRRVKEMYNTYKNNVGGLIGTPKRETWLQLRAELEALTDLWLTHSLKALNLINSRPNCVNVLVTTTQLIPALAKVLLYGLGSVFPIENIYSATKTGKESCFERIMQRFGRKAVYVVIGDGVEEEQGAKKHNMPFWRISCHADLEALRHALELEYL
Target sequence (Q15475 whole entry, looked up): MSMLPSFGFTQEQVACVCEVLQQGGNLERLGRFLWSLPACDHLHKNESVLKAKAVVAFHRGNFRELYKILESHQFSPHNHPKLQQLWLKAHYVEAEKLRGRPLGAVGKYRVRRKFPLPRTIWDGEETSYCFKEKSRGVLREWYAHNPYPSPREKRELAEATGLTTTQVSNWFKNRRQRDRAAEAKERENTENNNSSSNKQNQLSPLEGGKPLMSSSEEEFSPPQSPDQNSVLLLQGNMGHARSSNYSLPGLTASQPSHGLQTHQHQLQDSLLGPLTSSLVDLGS
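AlphaScreen luminescence read after one hour at 37 °C in darkness. Pin-transferred compounds met GST-Six1 and His-Eya2 protein (5X stock 250 nM/500 nM) plus glutathione donor and Ni-chelate acceptor beads (5X, 50 ug/mL).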
gsp antag: qHTS for Antagonists of gsp, the Etiologic Mutation Responsible for Fibrous Dysplasia/McCune-Albright Syndrome: qHTS. gsp-mutant cells, cAMP HTRF, 30 min; control for the full effect not named in the record. Potency, µM (top dose mostly 76.9 µM), for the others: at the highest dose activity change, negative = inhibition, most hits filed as inhibitors. hit rate 0.4% among 340,000. AID 624288, 2012; active = falling curve of any shape with a large fitted effect; inconclusive = falling curve, mostly with a smaller effect; inactive = flat or rising curve; cell line not stated here;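 note: intracellular cAMP measured with PDE inhibitor Ro 20-1724 present during compound exposure; potency is the fitted concentration of half-maximal effect; % is set by controls: 0 for no effect and ±100 for the full control effect; nearly all actives have a fitted effect of over 65% in size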
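Cells, 2000/well, grown 16–24 h in DMEM 10% FBS with 0.5 mg/ml G418, then compounds plus […] (300 uM addition stock), 30 min at 37C. cAMP read by HTRF (cAMP-d2 and anti-cAMP antibody-K in lysis buffer) after 30 min RT.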
CtBP-E1A blk: qHTS Assay for Inhibitors of the CtBP/E1A Interaction. AlphaScreen GST-E1A/His-CtBP binding, 1536-well; stronger effect = lower value; control for the full effect not named in the record. hit rate 0.49% among 340,000. activity change, % (concentration not given with the values). CtBP / adenovirus E1A interaction (AlphaScreen); in the data active means activity change below about -65%; inconclusive means about -30% to -65%; inactive means above about -30%; note: % is set by controls: 0 for no effect and ±100 for the full control effect
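Steps: dispense buffer (Tris pH 8.0, NaCl 300 mM, TCEP 1 mM, BSA, Tween 20); add 5X protein mix (GST-E1A, His-CtBP, 125 nM each); pin 23 nL compound; 2 h at 37 °C, dark; add 5X beads (50 ug/mL); 1 h; read.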
D2 potentiator: Beta-Arrestin HTS for Positive Allosteric Modulators of the Human D2 Dopamine Receptor: Potentiators; D(2) dopamine receptor (Homo sapiens), P14416; DiscoveRx D2 beta-arrestin cells, luminescence, 90 min; 100% = 57 uM dopamine signal; potentiation, % (test concentration not listed); hit rate 0.23% among 360,000; active = potentiation of 50% or more; inconclusive = 30% to 50%; inactive = 30% or less;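 note: compound concentration not given in the record; tested on top of an EC20 dose of dopamine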
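PathHunter D2 cells, attached overnight at 37 deg C, received compound in DMSO plus dopamine at EC20 (50 nM final) for 90 min at 37 deg C. Beta-arrestin recruitment was read as luminescence after 1 h with detection reagent at ambient temperature.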
D2 agonist: Beta-Arrestin HTS for Positive Allosteric Modulators of the Human D2 Dopamine Receptor: Agonists | D(2) dopamine receptor (Homo sapiens), P14416 | DiscoveRx PathHunter D2 beta-arrestin, luminescence, 90 min; 100% = 57 uM dopamine signal | activation, % (no concentration beside the values) | hit rate 0.084% among 360,000 | AID 624465, 2012; in the data active = activation above about 40%; inconclusive = about 15% to 40%; inactive = below about 15%; note: compound concentration not given in the record; the text of the record calls up to 30% inactive
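DiscoveRx PathHunter D2 beta-arrestin cells (2,100/well) attached overnight, then compound-stimulated 90 min at 37 C in HBSS/10 mM HEPES/0.1% Tween-20 buffer; beta-galactosidase complementation read by luminescence after 1 h at ambient temperature. Dopamine 57 uM final (EC100) as control.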
Starred values were filed as active, the others as inactive; ? = inconclusive; · = no result given; [ ] = remark or other dose.

1: O=C(NCC(=O)N1CCc2ccccc2C1)c1ccc(Cl)cc1Cl
2: COc1ccc(/C(C)=N/Nc2ncc(Cl)cc2Cl)c(O)c1
3: CCCNC(=O)C1(C)CCN(Cc2noc(-c3ccccc3OC)n2)C1 (stereo not drawn)
4: COc1cc([C@@H]2c3cc4c(cc3[C@H](O)[C@H]3COC(=O)[C@H]23)OCO4)cc(OC)c1OC
5: Cc1ccc(CNC(=O)COc2cccc3c2OC(C)(C)C3)cc1
6: Cn1c(=O)c2[nH]c(Nc3ccccc3)nc2n(C)c1=O

Screen / compound no.	1	2	3	4	5	6
D2 agonist	3.3	-6.4	-3.4	4.6	-4.3	0.2
Six1-Eya2 inh	-3	0	-2	2	-5	-3
CtBP-E1A blk	6	0	3	0	11	-1
gsp ag	-29%	-10%[15.4 µM]	·	·	-20%	0%
gsp antag	-5%	-4%	·	8%	2%	-35%
D2 potentiator	-3	-7	-12	-10	-28	15

7: C/C(=C/Cc1c(O)cc2oc(C)cc(=O)c2c1O)COC1OC(CO)C(O)C(O)C1O (stereo not drawn)
8: CCNC(=O)C1CCCN(Cc2ccc(OCc3ccccc3)cc2)CC1 (stereo not drawn)
9: O=C(CNc1cccc(S(=O)(=O)N2CCCC2)c1)Nc1ccc(F)cc1F
10: O=C(c1cc(F)ccc1F)C1CCCN(C(=O)CCc2cnccn2)C1 (stereo not drawn)
11: COc1cccc(NC(=S)NC(=O)Cc2ccc(Cl)cc2)c1
12: C=CCNC(=O)C1CCN(S(=O)(=O)c2ccc(Br)cc2)CC1

Screen / compound no.	7	8	9	10	11	12
D2 agonist	-0.4	2.5	1.8	1.6	-8.3	-2.3
Six1-Eya2 inh	0	19	2	-2	9	-1
CtBP-E1A blk	2	24	0	6	21	3
gsp ag	-7%	·	-41%	?	-71%[inhibitor]	19%
gsp antag	7%	·	-13%	9%	-11%	-1%
D2 potentiator	2	-5	-10	-6	-7	0

13: Cn1nc(C(F)(F)F)c2cc(C(=O)NC3CC3)sc21
14: O=C(CSc1nc(Nc2ccccc2)nc(N2CCOCC2)n1)Nc1ccc(Br)cc1F
15: CCOC(=O)C1=C(CSc2nc(-c3ccccc3)ccc2C#N)OC(N)=C(C#N)C1c1cccnc1 (stereo not drawn)
16: O=C(NCc1cccs1)C(NS(=O)(=O)c1cccc2nsnc12)c1ccccc1 (stereo not drawn)
17: c1ccc(-c2ccccc2OCCCN2CCCCC2)cc1
18: Cc1ccc(S(=O)(=O)CC(=O)N2CCN(c3ccc([N+](=O)[O-])cc3)CC2)cc1

Screen / compound no.	13	14	15	16	17	18
D2 agonist	-1.9	-0.1	-0.2	-4.4	-1.5	-1.0
Six1-Eya2 inh	-3	5	-18	-11	0	-1
CtBP-E1A blk	-3	12	-17	-9	-3	-2
gsp ag	-33%[inhibitor]	?	21%	0%	-24%	19%
gsp antag	8%	-8%	-3%	4%	5%	-20%
D2 potentiator	-21	2	2	-6	-31	-8

19: CCOc1ccc(Nc2nc(N)nc(CSC(=S)N3CCOCC3)n2)cc1
20: Cc1noc(C)c1C(=O)N1CCN(CCc2ccccc2)CC1
21: CCC(C)(C)c1nnc(NC(=O)c2ccc([N+](=O)[O-])cc2)s1
22: COc1ccc(-c2csc(NCCc3nc4cc(C(=O)NCCCO)ccc4n3Cc3ccc(C)cc3)n2)cc1
23: CC(c1ccncn1)N(C)Cc1nc(Cc2ccccc2F)no1 (stereo not drawn)
24: CCN(CC)C(=O)CSc1nc2sc3c(c2c(=O)n1-c1ccc(C)cc1)CC(C)(C)SC3

Screen / compound no.	19	20	21	22	23	24
D2 agonist	-1.2	0.7	-1.4	-5.3	-3.9	-4.0
Six1-Eya2 inh	2	4	5	-10	12	-9
CtBP-E1A blk	·	5	1	-9	-21	-5
gsp ag	-3%	7%	-30%[inhibitor]	2%	-1%[15.4 µM]	0%
gsp antag	-7%	12%	14%	-18%	10%	13%
D2 potentiator	4	-17	-4	-16	-5	-9

25: Cc1ccc(N(C(=O)c2ccc(S(=O)(=O)N3CCOCC3)cc2)C2C=CS(=O)(=O)C2)cc1 (stereo not drawn)
26: Cc1cc(C(F)(F)F)n(-c2nc(C(=O)NN)cs2)n1
27: COC(=O)[C@H]1C[C@H](OC(=O)Nc2c(C)noc2C)[C@@]2(O)CN(S(=O)(=O)c3ccc(C)cc3)CC2[C@H]1C(=O)OC (stereo partly drawn)
28: CC(C)(C)OC(=O)N/N=C/c1cn(-c2ccccc2)nc1-c1cccnc1
29: CC(=O)c1cccc(NC(=O)C2CC(=O)N(CCc3ccccc3)C2)c1 (stereo not drawn)
30: Cc1c(C)n(C(=O)CSc2nccn2C)c2ccccc12

Screen / compound no.	25	26	27	28	29	30
D2 agonist	-1.9	-7.4	-8.6	-1.2	-4.4	-3.1
Six1-Eya2 inh	-7	0	3	0	0	-6
CtBP-E1A blk	-24	4	6	4	-6	1
gsp ag	8%	3%	-12%	-43%[inhibitor]	?	-13%
gsp antag	-2%	-5%	·	-6%	0%	-8%
D2 potentiator	4	-23	4	7	-26	-5

31: COc1ccc(NC(=O)CNCc2cccs2)c(OC)c1
32: CCCCN(C(=O)CCCSc1nc2ccccc2[nH]1)c1c(N)n(Cc2ccccc2)c(=O)[nH]c1=O
33: O=C(O)CS(=O)(=O)CC(=O)NCc1cccc(C(F)(F)F)c1
34: COc1ccc(CCC(=O)O)c(O)c1
35: CCCCCCCCN1[C@@H](CC(=O)OC)c2cc(F)ccc2S1(=O)=O
36: O=S(=O)(NCCOC12CC3CC(CC(C3)C1)C2)c1cccc2nsnc12

Screen / compound no.	31	32	33	34	35	36
D2 agonist	-2.0	5.5	0.3	3.0	0.0	-0.3
Six1-Eya2 inh	5	3	1	-5	22	-1
CtBP-E1A blk	6	18	6	-2	4	-11
gsp ag	-28%	4%[15.4 µM]	-16%	-174%[inhibitor]	·	17%
gsp antag	·	-5%	4%	9%	-7%	-1%
D2 potentiator	-14	16	-1	-1	-22	-16

Sorted by molecular weight (low to high): part of the list above.
26: Cc1cc(C(F)(F)F)n(-c2nc(C(=O)NN)cs2)n1
29: CC(=O)c1cccc(NC(=O)C2CC(=O)N(CCc3ccccc3)C2)c1 (stereo not drawn)
28: CC(C)(C)OC(=O)N/N=C/c1cn(-c2ccccc2)nc1-c1cccnc1
15: CCOC(=O)C1=C(CSc2nc(-c3ccccc3)ccc2C#N)OC(N)=C(C#N)C1c1cccnc1 (stereo not drawn)
14: O=C(CSc1nc(Nc2ccccc2)nc(N2CCOCC2)n1)Nc1ccc(Br)cc1F

Screen / compound no.	26	29	28	15	14
D2 agonist	-7.4	-4.4	-1.2	-0.2	-0.1
Six1-Eya2 inh	0	0	0	-18	5
CtBP-E1A blk	4	-6	4	-17	12
gsp ag	3%	?	-43%[inhibitor]	21%	?
gsp antag	-5%	0%	-6%	-3%	-8%
D2 potentiator	-23	-26	7	2	2

(cont.)
37: O=[N+]([O-])c1cc(-c2nnc(Nc3ccccc3)c3ccccc23)ccc1N1CCOCC1
38: Cc1cccn2c(CN3CCCC(c4ccccc4)C3)c(C(=O)N3CCOCC3)nc12 (stereo not drawn)
39: O=C1CN(C(=O)c2ccco2)C(c2ccc(F)cc2)c2cc(Cl)ccc2N1 (stereo not drawn)
40: COc1ccc(N(C(=O)c2ccncc2)S(=O)(=O)c2ccc(Cl)cc2)cc1
41: N#Cc1ccccc1S(=O)(=O)N1CCC(C(=O)NCc2ccccc2CN2CCCC2)CC1
42: CCOCCCNC(=O)c1ccc(N2CC3CC(C2)c2cccc(=O)n2C3)c(NC(=O)Nc2cccc(OC)c2)c1 (stereo not drawn)

Screen / compound no.	37	38	39	40	41	42
D2 agonist	-7.2	-6.8	-3.9	-1.3	-4.6	1.8
Six1-Eya2 inh	-6	4	-1	-2	2	8
CtBP-E1A blk	·	1	9	-8	·	·
gsp ag	-62%[inhibitor]	13%	28%	?	19%	-2%
gsp antag	-12%	5%	5%	50µM*	2%	-13%
D2 potentiator	-11	-11	-6	-2	-11	-2

43: O=C(Nc1cccc2ccccc12)c1cc2c(cc1Br)OCO2
44: C[C@H](NC(=O)C1CCN(S(=O)(=O)c2ccccc2)CC1)C(=O)NCc1cccc(Cl)c1
45: CCN(CC)c1nc2ccccc2[nH]1
46: CC(C)(C)OC(=O)N[C@H](/C=C/c1ccccc1)C(=O)OC(C)(C)C
47: O=C(c1cn(CC2CCCCC2)nn1)N1CCN(c2ccc(F)cc2)CC1
48: O=c1c2sccc2nc(SCc2cc(=O)n3ccccc3n2)n1-c1ccc(Br)cc1

Screen / compound no.	43	44	45	46	47	48
D2 agonist	6.5	-2.6	-2.4	-7.1	-3.2	2.8
Six1-Eya2 inh	-1	1	1	3	-10	-7
CtBP-E1A blk	·	6	4	2	-6	-2
gsp ag	3%	-15%	4%	-20%	3%	8%[15.4 µM]
gsp antag	12%	-8%	-4%	5%	-3%	-7%
D2 potentiator	1	-3	-5	-7	-11	0

49: CC(NC(=O)CSc1nc2ccccc2c(=O)[nH]1)c1ccccc1 (stereo not drawn)
50: O=C(NC(=O)c1ccccc1)NC(=O)c1ccccc1
51: COc1ccc(NC(=O)CCN2C(=O)c3ccccc3S2(=O)=O)cc1
52: O=C(O)CSCCOc1ccc(OCCSCC(=O)O)cc1
53: O=C(c1ccccc1)c1cccc2ccccc12
54: CCC(CC)C(=O)Nc1ccc(C(=O)Nc2cc(C)on2)cc1

Screen / compound no.	49	50	51	52	53	54
D2 agonist	-3.6	-2.2	-2.5	-0.9	3.8	-7.0
Six1-Eya2 inh	10	1	3	2	12	0
CtBP-E1A blk	-2	8	19	11	54	-12
gsp ag	-14%[15.4 µM]	?	-32%[inhibitor]	-23%	?	17%[15.4 µM]
gsp antag	5%	9%	1%	4%	2%	-1%
D2 potentiator	-9	-11	-12	-4	7	-4

55: COc1cc2c(cc1OC)CN(C(=S)NC(=O)c1ccccc1)CC2
56: Cc1cc(C)cc(OCC(=O)OCC(=O)N2CC(=O)Nc3ccccc32)c1
57: Cc1cc(N2CCCC2)nc2c(C)cccc12
58: CC12CCC(C(=O)NCCc3ccccc3)(OC1=O)C2(C)C (stereo not drawn)

Screen / compound no.	55	56	57	58
D2 agonist	0.2	-0.3	0.6	-2.7
Six1-Eya2 inh	6	-4	18	4
CtBP-E1A blk	·	-2	0	9
gsp ag	-16%[15.4 µM]	-5%[15.4 µM]	12%[15.4 µM]	-66%[inhibitor]
gsp antag	4%	4%	·	8%
D2 potentiator	-4	-3	5	-1
